# Cruzain Triton: cruzain (T. cruzi) inhibition with detergent | P25779 | purified cruzain, Z-FR-AMC fluorescence, 0.01% Triton | Potency, µM, inactives show max response, negative = inhibition, usual class: inhibitors | 200,000 compounds, 0.43% hits; active = well fitted curve in the direction sought with a large enough effect; inconclusive = small, poorly fitted or top-dose-only effect, or another doubt; inactive = no such curve, though single readings can be large; an effect the other way counts as inactive or inconclusive;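 also: plate controls were neutral wells for no effect and buffer without enzyme for full effect; nearly all actives have a fitted effect of over 40% in size; top concentration of the series not given in the record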
# Target sequence (P25779 123-467 limits assumed): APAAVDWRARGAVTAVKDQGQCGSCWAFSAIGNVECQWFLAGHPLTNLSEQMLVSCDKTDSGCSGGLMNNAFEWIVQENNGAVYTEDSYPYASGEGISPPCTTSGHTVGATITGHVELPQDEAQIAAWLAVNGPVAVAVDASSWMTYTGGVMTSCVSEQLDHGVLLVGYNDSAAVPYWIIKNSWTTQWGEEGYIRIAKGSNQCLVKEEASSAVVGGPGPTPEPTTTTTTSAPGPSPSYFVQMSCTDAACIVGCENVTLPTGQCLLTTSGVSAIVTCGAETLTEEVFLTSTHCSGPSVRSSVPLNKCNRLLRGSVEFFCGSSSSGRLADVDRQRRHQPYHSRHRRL
#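 Cruzain (1.5 nM) preincubated 15 min at RT with compound in 100 mM sodium acetate pH 5.5, 5 mM DTT, 0.01% Triton X-100. Reaction started with 2 uM Z-FR-AMC; AMC fluorescence (ex 360/em 450 nm) change over 60 s gave rate.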
# Marburg entry inh: inhibitors of Marburg virus binding or cell entry | Marburg virus pseudotyped entry inhibition, cell reporter; control for the full effect not named in the record; about a third of the inactives were read at about 46 µM | 300,000 compounds, 1.8% hits | Potency, µM (highest dose often 37.8 µM), without a hit: at the top dose activity change, negative = inhibition, usual class: inhibitors; active = well fitted inhibition curve with a large enough effect; inconclusive = small, poorly fitted or top-dose-only effect, or effect the other way; inactive = flat fitted curve, though single readings scatter; tested in HEK293 cells; about a fifth of its hits are not listed in these tables; also: % is scaled to controls: 0 for no effect and ±100 for the full control effect; luciferase read-out
# LASV entry inh: inhibitors of Lassa virus binding or cell entry. Lassa virus pseudotype entry inhibition, cell reporter; control for the full effect not named in the record. Potency, µM (doses to about 37.9 µM), for inactives: top-dose activity change, negative = inhibition, most hits filed as inhibitors. 300,000 compounds, 1.2% hits. AID 540256; active means well fitted inhibition curve with a large enough effect; inconclusive means small, poorly fitted or top-dose-only effect, or effect the other way; inactive means flat fitted curve, though single readings scatter; tested in HEK293 cells; also: % is scaled to controls: 0 for no effect and ±100 for the full control effect; nearly all actives have a fitted effect of over 50% in size; luciferase read-out
# SARS PLpro yeast: blocks SARS-CoV papain-like protease in a yeast assay | AID 485353 | Potency, µM (top dose mostly 32.9 µM), for the others: at the highest dose activity, positive = growth rescue | S. cerevisiae expressing SARS-CoV PLpro, growth rescue; control for the full effect not named in the record | 330,000 compounds, 0.19% hits; also: 0% is about no effect; nearly all actives have a fitted effect of over 55% in size; growth read by luminescence after 48 h
# NS1 function inh: influenza NS1 inhibition; S. cerevisiae slowed by influenza A NS1, growth recovery by OD600; Potency, µM (highest dose often 46.1 µM), for inactives: at the top dose activity, positive = more growth; 270,000 compounds, 0.4% hits; also: actives are rising curves; nearly all actives have a fitted effect of over 50% in size
#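 Compounds were scored for reversing the slow growth caused by influenza A NS1 in S. cerevisiae, measured by optical density at 600 nm. Assay medium contained 2% galactose at pH 6.0; NS1-free yeast of the same strain were the positive control.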
# StopGo reporter: FMDV 2A StopGo reporter, luciferase signal; human cells with a luciferase reporter of 2A StopGo recoding; control for the full effect not named in the record; Potency, µM (titrated, usually from 57.9 µM), for inactives: at the highest dose signal change, negative = less light; 410,000 compounds, 1.2% hits; AID 1159524; active = well fitted falling curve with a large enough effect; inconclusive = small, poorly fitted or top-dose-only effect; inactive = no such curve, though single readings can be large or run the other way; tested in HEK293T cells; also: % is scaled to controls: 0 for no effect and ±100 for the full control effect; nearly all actives have a fitted effect of over 45% in size; luciferase light after 4 h
# Cruzain noTriton: cruzain (T. cruzi) inhibition without detergent. P25779. purified cruzain, Z-FR-AMC fluorescence, no detergent. Potency, µM, inactives show max response, negative = inhibition, hits mostly inhibitors. 200,000 compounds, 2.3% hits. AID 1476; active = well fitted curve in the direction sought with a large enough effect; inconclusive = small, poorly fitted or top-dose-only effect, or another doubt; inactive = no such curve, though single readings can be large; an effect the other way counts as inactive or inconclusive;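 also: plate controls were enzyme without inhibitor for no effect and buffer without enzyme for full effect; nearly all actives have a fitted effect of over 40% in size; top concentration of the series not given in the record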
#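 Detergent-free condition (0.00005% Triton X-100) in acetate buffer pH 5.5 with DTT. 1.5 nM enzyme and compound were pre-mixed 15 min, then 2 uM Z-FR-AMC substrate added; reaction progress from fluorescence change between first and third reads (60 s).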
# RE007 growth inh: less growth of the S. pombe RE007 Vpr strain. S. pombe RE007 Vpr strain, BacTiter-Glo ATP luminescence, 24 h; control for the full effect not named in the record. Potency, µM (highest dose often 92.2 µM), for the others: at the top dose activity change, negative = less growth. 360,000 compounds, 0.21% hits; active = well fitted falling curve with a large enough effect; inconclusive = small, poorly fitted or top-dose-only effect; inactive = no such curve, though single readings can be large or run the other way;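 also: % is scaled to controls: 0 for no effect and ±100 for the full control effect; nearly all actives have a fitted effect of over 50% in size; the assay follows cell death caused by Vpr and the record does not say whether a fall means rescue or toxicity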
#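 Fission yeast RE007 carrying one integrated HIV-1 vpr copy, seeded at OD 0.01 in PMG+AL medium with 23 nL pinned compound. Grown 24 h at 30 degrees; viability read by BacTiter-Glo luminescence after 5 min.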
# * hit, by the source's call; ? = inconclusive; / = not tested or not shown; & = joins results of further samples; [ ] = remark or other dose. Unless noted, calls follow the shape of the dose curve; as a rule, active means well fitted rising curve with a large enough effect; inconclusive means small, poorly fitted or top-dose-only effect; inactive means no such curve, though single readings can be large or run the other way. Potency is read from the fitted curve at half-maximal effect.
# Results follow in this order: Cruzain Triton | Marburg entry inh | LASV entry inh | SARS PLpro yeast | NS1 function inh | StopGo reporter | Cruzain noTriton | RE007 growth inh
1: N#Cc1cc(Nc2c(N)nc[nH]c2=O)c([N+](=O)[O-])cc1C#N
 : / | 13%[46.1 µM] | ? | -1% | 0% | 9% | / | 17%
2: Clc1nc(-c2cccnc2)nc2scc(-c3ccccc3)c12
 : -3.8% | -3% | -1% | -48% | -7% | 14% | -16% | 2%
3: CC(C)(C)C(=O)OCc1nc(-c2ccc3c(c2)OCCO3)cs1
 : / | / | / | 6% | -4% | 11% | / | -23%
4: CCCN1C2CCCC1CC(NC(=S)Nc1cc(C)ccc1C)C2 (stereo not drawn)
 : -0.1% | -10% | -9% | 3% | 5% | 24% | 4% | -3%
5: Cc1cc(C)cc(NC(=O)c2cccn2-c2ncc(C(F)(F)F)cc2Cl)c1
 : -4.4% | 15% | -1% | -11% | -10% | ? | 1% | -3%
6: CC(C)Cn1c(N)c(C(=O)COC(=O)c2cc(C(F)(F)F)nc3c(C(F)(F)F)cccc23)c(=O)n(C)c1=O
 : 1.7%&-3.2% | -19%&-19% | -1% | 0% | -10% | / | -3%&-19% | /
7: Cc1c(C(=O)O)sc2nc3n(c(=O)c12)CCCCC3
 : 5.5% | 1% | ? | / | -1% | 5% | 5% | 2%
8: COc1ccc(C(=O)Nc2cccc(C(C)=O)c2)c(OC)c1OC
 : 2.2% | 7% | 13% | -11% | 2% | 26% | 4% | -5%
9: O=C(CNC(=O)c1cccs1)c1ccc(Br)cc1
 : / | -29%[46.1 µM] | ? | -2% | -7% | 4% | / | 18%
10: O=C(Nc1ccc(C(=O)OC[C@@H]2CCCN3CCCC[C@H]23)cc1)c1cccc(Br)c1
 : -2.2% | 9.2µM* | -6% | 13% | 1% | -4% | 4% | 2%
11: Cc1cc(-c2ccccc2)nc2cc(C(=O)N(Cc3ccccc3)Cc3ccccc3)nn12
 : -9.4% | ? | ? | 1% | -3% | ? | 13% | -7%
12: Cn1c(N)c(N2CCCCC2)c(=O)n(CC(=O)Nc2ccc(Cl)c(Cl)c2)c1=O
 : -0.9% | 19% | 18% | 0% | -13% | -3% | -4% | 7%
13: O=C(CSc1nnc(NC(=O)c2cccc(Br)c2)s1)NCC1CCCO1 (stereo not drawn)
 : / | -7% | -15% | 3% | 17% | 28% | / | -7%
14: COc1ccc(C(=O)Nc2ccc(NC(=O)c3cccs3)cn2)cc1
 : / | 6%[46.1 µM] | -2%[46.1 µM] | 2% | -5% | 8% | / | 11%
15: Brc1ccc(-c2nn3c(Cc4ccccc4)nnc3s2)o1
 : 0.1% | -1% | -13% | 1% | -14% | 43%[activator] | 2% | 3%
16: CCCNC(=O)Cn1cnc2sc(C(=O)N3CCCC(C(=O)OCC)C3)c(C)c2c1=O (stereo not drawn)
 : 0.5% | ? | -1% | -4% | 4% | -28% | 3% | 11%
17: CCOc1ccc(C2=Nc3ccc(Br)cc3C(c3ccc(N4CCOCC4)cc3)=NN2)cc1
 : -3.0% | 16% | 0% | -5% | ? | 19% | -41% | 11%
18: Cc1ccc(N2C(=O)[C@@H]3CSC(c4ccc(C(F)(F)F)cc4)N3C2=O)cc1 (stereo partly drawn)
 : -4.4% | 6%[46.1 µM] | -25%[46.1 µM] | / | / | 3% | -3% | /
19: Cc1ccc(S(=O)(=O)NCC2COc3ccccc3O2)cc1 (stereo not drawn)
 : -4.9% | 19% | 13% | -112% | -8% | 19% | -6% | 5%
20: CN(C)c1ccc(C(CNC(=O)c2ccccc2C(F)(F)F)N2CCOCC2)cc1 (stereo not drawn)
 : -3.3% | / | -10%[46.1 µM] | / | / | 8% | 5% | /
21: COc1ccc(S(=O)(=O)c2c(O)cc(C)c(NS(=O)(=O)c3ccccc3)c2C)cc1
 : / | ? | -28%[46.1 µM] | -2% | -9% | 46%[activator] | / | 0%
22: O=c1ccccn1CCOc1ccc(Cl)cc1
 : / | / | / | 1% | 1% | 18% | / | 15%
23: COc1ccccc1OCCOc1ccc(/C=C2\C(=N)N3N=C(C)SC3=NC2=O)cc1
 : / | -14% | 24% | 2% | 25% | -27% | / | 0%
24: Nc1nnc(SCC(=O)NCCOc2ccccc2)s1
 : 28µM* | 0% | 0% | 3% | 0% | -17% | ? | 7%
25: CN(CC1COCCO1)C(=O)c1cc(COc2c(F)cccc2F)on1 (stereo not drawn)
 : / | ? | 19% | -1% | -11% | 19% | / | -29%
26: COc1ccc(CN2CCNC(=O)C2CC(=O)NCCSc2nccn2C)c(OC)c1 (stereo not drawn)
 : / | 3%[46.1 µM] | 9%[46.1 µM] | 0% | 2% | 3% | / | -6%
27: O=C(Nc1cccc(F)c1)Nc1c[nH]c(=O)[nH]c1=O
 : / | 3% | -25% | -3% | 1% | 4% | / | -17%
28: CCOC(=O)C1CCCN(S(=O)(=O)c2ccc(N3CCCCS3(=O)=O)cc2)C1 (stereo not drawn)
 : -0.4% | / | -28%[46.1 µM] | / | / | -15% | 4% | /
29: CN(C)CCN(Cc1cc2cc3c(cc2[nH]c1=O)OCCO3)C(=S)NCC1CCCO1 (stereo not drawn)
 : / | -2%[46.1 µM] | -14% | 0% | 2% | 5% | / | 7%
30: COc1ccccc1CNC(=O)CC(c1ccc(OC)c(OC)c1)N1Cc2ccccc2C1=O (stereo not drawn)
 : -3.3% | / | 4%[46.1 µM] | / | / | 54%[activator] | -10% | /

# Molecules listed so far that contain an NH in an aromatic ring:
# Results follow in this order: Cruzain Triton | Marburg entry inh | LASV entry inh | SARS PLpro yeast | NS1 function inh | StopGo reporter | Cruzain noTriton | RE007 growth inh
1: N#Cc1cc(Nc2c(N)nc[nH]c2=O)c([N+](=O)[O-])cc1C#N
 : / | 13%[46.1 µM] | ? | -1% | 0% | 9% | / | 17%
27: O=C(Nc1cccc(F)c1)Nc1c[nH]c(=O)[nH]c1=O
 : / | 3% | -25% | -3% | 1% | 4% | / | -17%
29: CN(C)CCN(Cc1cc2cc3c(cc2[nH]c1=O)OCCO3)C(=S)NCC1CCCO1 (stereo not drawn)
 : / | -2%[46.1 µM] | -14% | 0% | 2% | 5% | / | 7%

# Additional entries
# Results follow in this order: Cruzain Triton | Marburg entry inh | LASV entry inh | SARS PLpro yeast | NS1 function inh | StopGo reporter | Cruzain noTriton | RE007 growth inh
31: COC(=O)C1=C(C)NC(=O)NC1c1cc(Cl)ccc1OC (stereo not drawn)
 : 3.4% | 8% | -2% | -2% | 5% | -8% | -3% | 9%
32: O=C(NCc1ccccc1)C1CCCN1S(=O)(=O)c1ccc(F)cc1 (stereo not drawn)
 : / | ? | -10% | 4% | 22% | 3% | / | -7%
33: CCN1CCN(Cc2ccc(NC(=O)c3ccc(C)c(NC(=O)C[C@@H]4NC(=O)[C@H](Cc5ccccc5)NC4=O)c3)cc2C(F)(F)F)CC1
 : / | / | / | 8% | -4% | -11%&-20% | / | 0%&9%
34: CCOC(=O)c1c(NC(=O)Cc2cccs2)sc(C)c1C
 : -9.7% | -16% | -4% | -9% | -5% | / | -1% | 11%
35: CCCOc1ccc(Oc2nc(-c3ccncc3)nc3ccccc23)cc1
 : / | ? | 15% | 0% | 4% | ? | / | 5%
36: CO/C([O-])=N/c1c[n+](-c2ccc(C)cc2)no1
 : -4.4% | 0% | 28% | -5% | 0% | 8% | -6% | 2%
37: COc1cccc(OCC(O)CN2CCN(CCO)CC2)c1 (stereo not drawn)
 : 4.3% | 4% | 5% | 1% | -6% | -22% | -3% | 48%
38: CCCC(=O)N1CC(=O)Nc2ccc(C)cc2C1c1ccc(F)cc1 (stereo not drawn)
 : / | / | / | 2% | 5% | -20% | / | 17%
39: Cc1cccc(NC(=O)CN(C)S(=O)(=O)c2cccs2)c1
 : -4.1% | 14% | 9% | -4% | -9% | / | -2% | -4%
40: COc1cccc(CNC(=O)CCc2nnc3n(CC(C)C)c(=O)c4ccccc4n23)c1
 : 1.4% | 1%[46.1 µM] | / | / | / | -12% | 3% | /
41: CCC(c1nnnn1Cc1ccco1)N(CCc1ccccc1)Cc1cc2ccc(OC)cc2[nH]c1=O (stereo not drawn)
 : -14% | ? | ? | -2% | ? | -18% | 0% | -12%
42: COC(=O)CSc1nnc(CSc2nc(C)cc(C)n2)n1Cc1ccco1
 : 2.0% | -19%&-19% | 7% | 12% | 8% | -21% | -2% | 3%
43: CCc1cc2cc3c(cc2nc1SCC(=O)Nc1nnc(C)s1)OCCO3
 : 3.0% | ? | ? | 5% | -3% | / | ? | 11%
44: COc1ccc(CCNc2nc3ccccc3n3nnnc23)cc1OC
 : 0.2% | / | / | 2% | -12% | 28% | 0% | 14%
45: CCCCN(CC)Cc1ccc(CNC(=S)Nc2c(C)cc(C)cc2C)o1
 : / | ? | 14%[46.1 µM] | 1% | / | -13% | / | -3%
46: CC(NC(=O)c1ccccc1)c1nnc(SCC(=O)NC2CCCC2)n1C (stereo not drawn)
 : / | 12%[46.1 µM] | -1%[46.1 µM] | 5% | 3% | -7% | / | -2%

# 3 records picked at random from the list so far, as already listed:
# Results follow in this order: Cruzain Triton | Marburg entry inh | LASV entry inh | SARS PLpro yeast | NS1 function inh | StopGo reporter | Cruzain noTriton | RE007 growth inh
44: COc1ccc(CCNc2nc3ccccc3n3nnnc23)cc1OC
 : 0.2% | / | / | 2% | -12% | 28% | 0% | 14%
21: COc1ccc(S(=O)(=O)c2c(O)cc(C)c(NS(=O)(=O)c3ccccc3)c2C)cc1
 : / | ? | -28%[46.1 µM] | -2% | -9% | 46%[activator] | / | 0%
6: CC(C)Cn1c(N)c(C(=O)COC(=O)c2cc(C(F)(F)F)nc3c(C(F)(F)F)cccc23)c(=O)n(C)c1=O
 : 1.7%&-3.2% | -19%&-19% | -1% | 0% | -10% | / | -3%&-19% | /

# Compound activity: PubChem BioAssay, National Center for Advancing Translational Sciences (NCATS)
